TRPV1 PAM – potentiators of human vanilloid receptor 1 (TRPV1). TRPV1-expressing cells, Fluo-8 calcium influx, capsaicin EC20 potentiation; host cell line not named in the record; control for the full effect not named in the record. actives 0.02% (n = 320,000). Q8NER1. AID 540277. potentiation, % at 8.33 µM; active means potentiation above 80%; inconclusive means 30% to 80%; inactive means below 30%; note: 0% is about no effect
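Cells expressing TRPV1 were dye-loaded with Fluo-8 and read kinetically: 10 s baseline, 3 min after compound (agonist portion), then 2 min after EC20 capsaicin (allosteric enhancer portion). Calcium-bound dye fluorescence at 480/520 nm.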
gsp ag – gsp mutant agonism. gsp mutant cells, cAMP HTRF, 30 min; control for the full effect not named in the record. Potency, µM (titrated, usually from 76.9 µM), inactives show top-dose activation (cAMP increase), actives largely listed as activators. actives 0.13% (n = 340,000). AID 624287; active = well fitted activation curve with a large enough effect; inconclusive = small, poorly fitted or top-dose-only effect, or another doubt; inactive = no such curve, though single readings can be large or run the other way; cell line not stated here;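 note: phosphodiesterase inhibitor Ro 20-1724 added with compounds to block cAMP breakdown; potency is the fitted concentration of half-maximal effect; nearly all actives have a fitted effect of over 60% in size; about a fifth of the inactives were tested at one dose only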
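Cells in DMEM/10% FBS with G418 were pretreated with compounds in DMSO plus […] (300 uM stock) for 30 min at 37C. cAMP was measured by HTRF (cAMP-d2 plus anti-cAMP antibody-K) after 30 min at room temperature.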
ClpP mod – qHTS Assay for Activators of ClpP | purified B. subtilis ClpP, FRET peptide cleavage, 20 min | Potency, µM (highest dose often 57.5 µM), for inactives: at the highest dose activity change, negative = active | actives 1.9% (n = 340,000); active = well fitted falling curve with a large enough effect; inconclusive = small, poorly fitted or top-dose-only effect; inactive = no such curve, though single readings can be large or run the other way; note: potency is the fitted concentration of half-maximal effect; the source files actives as falling curves though it sought activators and does not explain the sign; nearly all actives have a fitted effect of over 65% in size; many hits overshoot -100%
Target sequence (P80244 whole entry, looked up): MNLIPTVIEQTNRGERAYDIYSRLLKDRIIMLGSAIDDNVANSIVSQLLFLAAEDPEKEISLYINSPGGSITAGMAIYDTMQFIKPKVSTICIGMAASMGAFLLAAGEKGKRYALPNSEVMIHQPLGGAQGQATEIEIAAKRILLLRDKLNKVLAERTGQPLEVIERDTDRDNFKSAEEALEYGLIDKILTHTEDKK
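Purified B. subtilis ClpP, 10 microg/mL final in Tris/HCl pH8 with KCl, BSA, glycerol and Tween-20, cleaved an Abz/nitrotyrosine-quenched decapeptide. Fluorescence (ex 320, em 430) was read at 0 and 20 min at room temperature. Delta was normalized to 5.8 microM ADEP and DMSO/no-enzyme controls.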
Sfp inh – inhibitors of Bacillus subtilis Sfp phosphopantetheinyl transferase | actives 3.5% (n = 310,000) | AID 1490 | Biochemical Sfp PPTase activity, qHTS | Potency, µM, for inactives: max response, negative = inhibition, usual class: inhibitors; active = well fitted inhibition curve with a large enough effect; inconclusive = small, poorly fitted or top-dose-only effect, or another doubt; inactive = no such curve, though single readings can be large or run the other way;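 note: the enzyme is Sfp with the accession as filed and its product quenches rhodamine fluorescence; potency is the fitted concentration of half-maximal effect; 0% = enzyme reaction without inhibitor and -100% = no enzyme wells; top concentration of the series not given in the record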
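Sfp 15 nM + cpd, 15 min RT; start w/ rhodamine-CoA 5 uM, BHQ-2-YbbR 12.5 uM (final); 50 mM Hepes pH 7.6, 10 mM MgCl2, 0.01% NP-40, 0.01% BSA; read 525/598 nm at 0 and 30 min.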
Menin MLL FP FL – displaces fluorescein MLL peptide from human menin; Fluorescence polarization, fluorescein-MLL peptide displacement from menin; FP activity change, % at 61.4 µM; 290,000 tested, under 10 active; AID 1766; inconclusive = falling polarisation curve, or a change in total fluorescence; inactive = total fluorescence flat and polarisation flat or rising; no compound was filed as active; the % refers to the polarisation; negative = inhibition;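 note: % of control where 0% means no effect; inhibitors lower the polarisation; unlabelled MLL peptide was the positive control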
D2 PAM – potentiates the human D2 dopamine receptor allosterically; P14416; DiscoveRx D2 beta-arrestin cells, luminescence, 90 min; 100% = 57 uM dopamine signal; AID 624464; potentiation, % (no concentration beside the values); actives 0.23% (n = 360,000); active = potentiation of 50% or more; inconclusive = 30% to 50%; inactive = 30% or less;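 note: compound concentration not given in the record; tested on top of an EC20 dose of dopamine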
Target sequence (P14416 whole entry, looked up): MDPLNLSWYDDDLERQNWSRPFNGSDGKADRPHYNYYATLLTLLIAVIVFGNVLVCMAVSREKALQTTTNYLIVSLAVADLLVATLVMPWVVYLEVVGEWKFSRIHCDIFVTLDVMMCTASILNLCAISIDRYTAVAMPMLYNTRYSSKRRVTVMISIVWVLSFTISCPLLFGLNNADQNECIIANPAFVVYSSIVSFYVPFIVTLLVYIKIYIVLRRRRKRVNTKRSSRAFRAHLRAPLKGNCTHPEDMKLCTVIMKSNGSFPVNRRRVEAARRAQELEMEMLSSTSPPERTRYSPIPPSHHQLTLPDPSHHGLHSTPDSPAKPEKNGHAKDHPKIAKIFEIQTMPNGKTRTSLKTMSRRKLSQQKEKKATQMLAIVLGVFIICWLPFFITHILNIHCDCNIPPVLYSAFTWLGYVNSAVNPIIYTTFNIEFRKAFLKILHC
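PathHunter D2 cells, attached overnight at 37 deg C, received compound in DMSO plus dopamine at EC20 (50 nM final) for 90 min at 37 deg C. Beta-arrestin recruitment was read as luminescence after 1 h with detection reagent at ambient temperature.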
gsp antag – antagonists of gsp mutant (McCune-Albright syndrome); gsp-mutant cells, cAMP HTRF, 30 min; control for the full effect not named in the record; Potency, µM (top dose mostly 76.9 µM), without a hit: at the highest dose activity change, negative = inhibition, usual class: inhibitors; actives 0.4% (n = 340,000); active = falling curve of any shape with a large fitted effect; inconclusive = falling curve, mostly with a smaller effect; inactive = flat or rising curve; cell line not stated here;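 note: intracellular cAMP measured with PDE inhibitor Ro 20-1724 present during compound exposure; potency is the fitted concentration of half-maximal effect; % is set by controls: 0 for no effect and ±100 for the full control effect; nearly all actives have a fitted effect of over 65% in size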
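Cells in G418 medium, seeded 16-24 h, 37C; buffer exchange to DPBS + 1 mM CaCl2, 0.5 mM MgCl2, 0.05% BSA; cpds in DMSO + […] (300 uM stock), 30 min 37C; HTRF cAMP detection.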
The depositor's hits bear a star; ? = inconclusive; . = no result given; & = joins results of further samples; [ ] = remark or other dose. Compounds as they come. About 5.1% of those tested had a hit in this group.

SMILES	TRPV1 PAM	gsp ag	ClpP mod	Sfp inh	Menin MLL FP FL	D2 PAM	gsp antag
COc1ccccc1/C=N/NC(=O)c1cccc(NC(=O)c2ccccc2Cl)c1	7	-7%[15.4 µM]	.	7%	0.6	-3	-25%
CCCn1c(SCC(=O)N2CCCC2)nc2c1c(=O)n(C)c(=O)n2C	-12	?	0.6%	10%	-3.6	5	14%
COc1ccc(Br)cc1CN1CCN(C(=O)c2cccc(F)c2)CC1	-17	9%	.	50µM*	1.3	-11	-8%
O=C(CC1C(=O)NCCN1C(=S)Nc1ccccc1)Nc1ccc(F)cc1 (stereo not given)	-9	-44%[inhibitor]	1.0%	?	0.0	-12	10%
CC1(c2cccc(Br)c2)NC(=O)N(CC(=O)Nc2ccc(F)cc2)C1=O (stereo not given)	-1	?	.	-6%	-5.1	-3	3%
CCc1ccc(-c2cc(C)no2)cc1S(=O)(=O)NCCCN1CCN(c2ccccc2)CC1	16	20%	-2.4%	10%	.	-34	?
N#Cc1cnc2ncnn2c1-c1ccccc1	10	-20%	-8.5%	14%	.	1	6%
O=C(O)CSC1=NC(=Nc2cccc(Cl)c2)C2(CCCCC2)N1c1ccccc1	2	29%	-0.9%	-6%	-0.1	-17	9%
Cc1ccc(CNc2nc3ccccc3s2)s1	-2	-20%	1.5%	0%	-1.2	10	-1%
COc1ccc(NC(=O)c2cc(S(=O)(=O)N3CCOCC3)cn2C)c(OC)c1	23	4%	0.5%	-8%	-7.4	-2	-6%
CCn1nc(C(=O)NCC2COc3ccccc3O2)c2ccccc2c1=O (stereo not given)	-8	23%	-3.5%	.	.	-3	-6%
Cc1ccc(O)c(N/C=C/C(=O)c2ccc(F)cc2)c1	-15	-49%[inhibitor]	.	0%	7.4	-2	-4%
CCOC(=O)c1c(S(=O)(=O)N(C)Cc2ccco2)c(C)n(C)c1C	-5	-15%	0.2%	0%	.	2	1%
Cc1cc(C(=O)NC2CC(C)(C)Cc3c2cnn3-c2ccc(F)cc2)no1 (stereo not given)	-2	-24%	-0.2%	18%	.	-2	-10%
Cn1cc(S(=O)(=O)CC(=O)Nc2ccc3c(c2)OCO3)c2ccccc21	-16	4%	0.9%	5%	1.6	-4	-12%
O=C(CN1CCCc2ccccc21)NCc1ccc2c(c1)OCO2	-16	-1%	-3.6%	13%	1.0	2	-18%
CCOc1cccc2sc(N(CCCN(C)C)C(=O)c3ccc(S(=O)(=O)N(CC)Cc4ccccc4)cc3)nc12	-9	-5%	-1.5%	50µM*	-0.9	-13	-7%
Fc1ccc(F)c(C2=NNC(=NCC3CCCO3)SC2)c1 (stereo not given)	5	-14%	4.3%	45µM*	9.6	-1	-7%
CNC(=O)N(O)C1N(/N=C/c2ccccc2OC)C(=S)SC1(C)C (stereo not given)	-16	-9%[15.4 µM]	0.4%	-12%	-8.0	-5	14%
O=C1N/C(=C\c2ccccc2)C(O)=C1C=NCc1ccccc1	6	-8%[15.4 µM]	-6.5%	23%	3.5	-6	2%
COC(=O)Oc1ccc(/C=N/NC(=O)CSCc2ccc(Cl)cc2)cc1OC	13	-23%	-0.4%	7%	0.7	-8	-11%
CCCCC(CC)C(=O)Nc1ncc([N+](=O)[O-])s1 (stereo not given)	-13	9%[15.4 µM]	0.0%	6%	1.4	-23	-24%
COc1ccc(OC)c(CN(CCCN2CCOCC2)C(=O)Nc2ccccc2)c1	14	15%	-1.1%	16%	2.7	-14	9%
O=C(Cc1ccccc1)NN=C1CCCC1	.	2%	.	.	.	0	-4%
c1cncc(-c2noc(-c3ccco3)n2)c1	-7	-27%	1.2%	-5%	1.5	-15	6%

Taken from above.
TRPV1 PAM with `COC(=O)Oc1ccc(/C=N/NC(=O)CSCc2ccc(Cl)cc2)cc1OC` reads 13
gsp antag with `CNC(=O)N(O)C1N(/N=C/c2ccccc2OC)C(=S)SC1(C)C` (stereo not given) reads 14%

Following part.
SMILES	TRPV1 PAM	gsp ag	ClpP mod	Sfp inh	Menin MLL FP FL	D2 PAM	gsp antag
CCCCOC(=O)C1=C(C)Nc2nnnn2C1c1ccccc1Cl (stereo not given)	10	-11%	-1.4%	2%	1.6	-1	-8%
C=CCn1c(=O)c(C(=O)Nc2ccccc2O)c(O)c2ccccc21	9	21%	-13%	-1%	5.0	-8	0%
CC[n+]1c(/C=C/C=C/N(C(C)=O)c2ccccc2)sc2ccccc21	-4	42%	-1.7%	50µM*	?	-53	-18%
O=C(COc1ccccc1[N+](=O)[O-])OCC(=O)N1CCC(Cc2ccccc2)CC1	6	-1%	0.5%	-17%	0.9	-7	-3%
CCn1c(C)c(/C=N/Nc2nc3ccccc3s2)c2ccccc21	1	1%	-17%	1%	1.4	?	0%
Cc1ccc(S(=O)(=O)N2CCCCC2)cc1C(=O)Nc1ccc(N2CCOCC2)cc1	-13	28%	0.5%	2%	2.6	5	?
Cc1ccc(NC(=O)CN(C)CC(=O)Nc2ccc(F)c(F)c2F)c(Cl)c1	15	-23%[15.4 µM]	.	11%	1.1	-3	-10%
O=C(c1ccc(S(=O)(=O)N2CCOCC2)cc1)N1CCN(c2ccccc2)CC1	-6	15%	-1.7%	12%	1.4	-2	0%
c1nc2sc3c(c2c2nnnn12)CCCC3	19	?	16µM*	-23%	2.2	-4	3%
Cc1ccc(C2C(=O)N(C3CCCC3)CC(=O)N2C2CCCCC2)cc1 (stereo not given)	-17	?	0.7%	2%	4.8	-6	-1%
CCOC(=O)Cn1nc(-c2ccc(C)cc2)ccc1=O	-4	-7%	?	9%	-1.6	-11	-6%
CC(=O)Nc1ccc(S(=O)(=O)NC(CSc2ccc(C(=O)O)cc2[N+](=O)[O-])C(=O)O)cc1 (stereo not given)	8	25%	0.6%	-21%	9.0	-5	18%
CC(C)Cc1nnc(NS(=O)(=O)c2ccccc2)s1	.	-10%	1.3%	.	.	-11	.
COC(=O)c1ccc(CN(c2ccc(C)cc2)S(=O)(=O)c2ccc3c(c2)OCCO3)o1	-6	-6%	3.7%	-1%	-0.6	-21	-10%
CCCN1C=CC(=C2C(=O)c3ccccc3C2=O)C=C1	13	-54%[inhibitor]	0.2%	11%	4.8	8	-15%
O=C(NCCNS(=O)(=O)c1ccccc1)N1CCOCC1	10	-15%	0.0%	21%	2.3	-3	7%
Cc1ccc(OCC(=O)O/N=C(\N)c2cccnc2)cc1	1	7%[15.4 µM]	.	16%	-2.0	-4	.
CCc1noc(C)c1C(=O)N1CCCSC1=Nc1ccccc1Cl	27	-10%[15.4 µM]	.	.	.	-2	1%
CC(C)(C)C(=O)Nc1ccccc1C(=O)NCc1cccnc1	-4	14%	-4.3%	14%	-1.6	-14	4%
O=C(CSc1nc2ccccc2o1)N1CCN(c2ccc(Cl)cc2)CC1	-18	-23%	-1.2%	-11%	-0.5	-4	-3%
CCSc1nnc(NC(=O)[C@@H](NC(=O)c2cc(OC)cc(OC)c2)C(C)C)s1	21	20%[15.4 µM]	.	5%	-2.3	-18	-6%
COc1ccc(NS(=O)(=O)c2cc(NC(=O)CCNC(C)=O)ccc2N2CCCCC2)cc1	11	0%	-0.3%	.	.	-2	1%
COc1ccc(S(=O)(=O)N2CCCC(C(=O)NCCN3CCOCC3)C2)cc1C (stereo not given)	24	-5%[15.4 µM]	-0.8%	8%	-14	-21	4%
Cc1cc(C)nc(SCc2n[nH]c(=S)n2C)n1	14	5%	-0.3%	-10%	0.3	-2	-12%
COc1ccc(NC(=O)C2CCCN(S(=O)(=O)c3ccc(-n4cnnn4)cc3)C2)cc1 (stereo not given)	-10	2%	.	14%	-3.5	-3	4%
Continuation:
SMILES	TRPV1 PAM	gsp ag	ClpP mod	Sfp inh	Menin MLL FP FL	D2 PAM	gsp antag
COc1ccc2c(c1)CC/C2=N\OC(=O)c1ccccc1OC	6	-9%	-0.1%	12%	-0.7	-2	?
Cc1ccc(SCCC(=O)NCCSCc2ccco2)cc1	-17	15%	.	-12%	2.8	-3	-9%
CC(=O)c1cn(Cc2ccccc2)c(=O)[nH]c1=O	4	-1%[15.4 µM]	.	17%	-1.3	-3	.
Cc1cccc(-c2noc(CN(C(=O)C34CC5CC(CC(C5)C3)C4)C(C)C)n2)c1	15	-24%	32µM*	-7%	1.1	14	-15%
C#CCOCCOCCOCCNc1nc(N2CCN(C(=O)C([C@@H](C)O)n3cc([C@@H](N)CCCCN)nn3)CC2)nc(N2CCN(C(=O)[C@H](CCCCN)n3cc(CN)nn3)CC2)n1 (stereo not given in full)	.	-16%	-1.5%	.	.	-14	4%
COCCCNC(=O)c1ccc(CS(=O)(=O)c2ccccc2OC)o1	-1	21%[15.4 µM]	-14%	6%	-6.3	-3	-10%
CC1(OC(=O)C2CCCC2)C(=O)C=C2C=C(c3ccsc3)N(C3CCCC3)C=C2C1=O (stereo not given)	-17	.	-1.5%	-4%&-23%	-1.3[11.7 µM]	21	14%
COc1ccc(S(=O)(=O)N2CCC(C(=O)O)(c3ccccc3)CC2)cc1	-7	-2%[15.4 µM]	0.4%	9%	0.8	7	-2%
C#CCOc1ccc(/C=C2/C(=O)NN(c3ccc(F)cc3)C2=O)cc1OC	?	13%	0.1%	-20%	-2.4	-7	-18%
COc1ccc(NC(=O)CSc2nnc(CNC(=O)COc3ccc(Cl)cc3)o2)cc1	6	-84%[inhibitor]	-0.9%	-10%	-0.5	-2	1%
CCC(C(=O)Nc1nnc(-c2ccco2)s1)c1ccccc1 (stereo not given)	-7	-12%	-28%	-22%	6.6	5	7%
C=CC(=O)Nc1ccc(Nc2nc(NC3CCC(N(C)C)CC3)nc3c2ncn3C(C)C)cc1 (stereo not given)	.	.	-0.2%	.	.	-12	-1%
COC(=O)/C(C#N)=C1/C=Cc2ccccc2N1C	4	?	1.7%	11%	1.2	-6	10%
COc1ccccc1CNC(=O)c1csc2c1CCCC2	-13	-57%[inhibitor]	-1.2%	7%	-4.5	-5	5%
O=C(NCCc1ccccc1)c1ccc(CS(=O)Cc2ccc(Cl)cc2)o1 (stereo not given)	-14	-96%[inhibitor]	-1.7%&-0.3%	1%	-6.9	-23	14%
CC(=O)c1ccc(S(=O)(=O)N(C)CCCC(=O)N(C)Cc2ccccc2F)cc1	26	-20%	.	5%	-0.6	-10	-11%

Source: PubChem BioAssay
